Screening results deposited in PubChem by National Center for Advancing Translational Sciences (NCATS).
gsp antag: antagonizes gsp, the McCune-Albright syndrome mutation; gsp-mutant cells, cAMP HTRF, 30 min; control for the full effect not named in the record; Potency, µM (titrated, usually from 76.9 µM), for the others: at the highest dose activity change, negative = inhibition, hits mostly inhibitors; 0.4% of 340,000 active; AID 624288; active = falling curve of any shape with a large fitted effect; inconclusive = falling curve, mostly with a smaller effect; inactive = flat or rising curve; cell line not stated here;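 also: intracellular cAMP measured with PDE inhibitor Ro 20-1724 present during compound exposure; potency is read from the fitted curve at half-maximal effect; % is scaled to controls: 0 for no effect and ±100 for the full control effect; nearly all actives have a fitted effect of over 65% in size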
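Cells, 2000/well, grown 16–24 h in DMEM 10% FBS with 0.5 mg/ml G418, then compounds plus […] (300 uM addition stock), 30 min at 37C. cAMP read by HTRF (cAMP-d2 and anti-cAMP antibody-K in lysis buffer) after 30 min RT.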
Menin MLL FP FL: menin-MLL binding inhibition, fluorescein peptide | Fluorescence polarization, fluorescein-MLL peptide displacement from menin | FP activity change, % at 61.4 µM | 290,000 tested, under 10 active | AID 1766; inconclusive = falling polarisation curve, or a change in total fluorescence; inactive = total fluorescence flat and polarisation flat or rising; no compound was filed as active; the % refers to the polarisation; negative = inhibition;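 also: % of control where 0% means no effect; inhibitors lower the polarisation; unlabelled MLL peptide was the positive control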
TRPML1 blocker: inhibitors of human TRPML1 channel; activity change, negative = inhibition, % (concentration not given with the values); AID 624415; 0.02% of 390,000 active; TRPML1-inducible cells, Ca2+ dye fluorescence, FDSS; active compounds read low; inhibition of EC80 agonist-evoked calcium signal; in the data active means activity change below about -50%; inconclusive means about -30% to -50%; inactive means above about -30%;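 also: stimulus is agonist 54-4 at its EC80 concentration; % is scaled to controls: 0 for no effect and ±100 for the full control effect; the text of the record puts the active cut at -80%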
Target sequence (Q9GZU1 whole entry, looked up): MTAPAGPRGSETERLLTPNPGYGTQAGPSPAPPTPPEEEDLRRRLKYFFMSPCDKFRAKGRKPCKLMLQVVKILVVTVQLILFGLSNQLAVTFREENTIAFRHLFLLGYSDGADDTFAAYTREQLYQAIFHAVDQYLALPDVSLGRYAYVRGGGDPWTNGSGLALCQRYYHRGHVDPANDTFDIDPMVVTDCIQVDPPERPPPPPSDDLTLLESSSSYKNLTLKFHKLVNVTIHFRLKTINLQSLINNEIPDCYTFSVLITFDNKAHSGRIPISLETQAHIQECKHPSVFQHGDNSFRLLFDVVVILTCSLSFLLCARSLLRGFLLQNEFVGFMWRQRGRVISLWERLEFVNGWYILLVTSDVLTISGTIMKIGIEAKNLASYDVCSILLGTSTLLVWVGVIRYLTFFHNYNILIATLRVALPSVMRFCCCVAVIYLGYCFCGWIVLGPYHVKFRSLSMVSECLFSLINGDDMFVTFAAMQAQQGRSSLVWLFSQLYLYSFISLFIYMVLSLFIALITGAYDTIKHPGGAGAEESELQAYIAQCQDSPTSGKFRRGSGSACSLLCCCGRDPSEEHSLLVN
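Calcium fluorescence in TRPML1-DL cells induced overnight with Tet: a 110 s read after compound pin addition, then a 110 s antagonist read after challenge with 54-4 at 4 uM final (EC80).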
ClpP mod: qHTS Assay for Activators of ClpP. ATP-dependent Clp protease proteolytic subunit (Bacillus subtilis (strain 168)), P80244. purified B. subtilis ClpP, FRET peptide cleavage, 20 min. Potency, µM (top dose mostly 57.5 µM), for inactives: at the top dose activity change, negative = active. 1.9% of 340,000 active; active = well fitted falling curve with a large enough effect; inconclusive = small, poorly fitted or top-dose-only effect; inactive = no such curve, though single readings can be large or run the other way; also: potency is read from the fitted curve at half-maximal effect; the source files actives as falling curves though it sought activators and does not explain the sign; nearly all actives have a fitted effect of over 65% in size; many hits overshoot -100%
Target sequence (P80244 whole entry, looked up): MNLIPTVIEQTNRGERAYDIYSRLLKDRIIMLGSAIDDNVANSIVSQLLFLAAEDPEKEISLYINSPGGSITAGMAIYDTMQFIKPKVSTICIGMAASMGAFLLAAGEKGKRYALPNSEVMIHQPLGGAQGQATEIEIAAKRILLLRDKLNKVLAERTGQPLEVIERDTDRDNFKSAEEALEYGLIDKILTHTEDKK
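Purified B. subtilis ClpP, 10 microg/mL final in Tris/HCl pH8 with KCl, BSA, glycerol and Tween-20, cleaved an Abz/nitrotyrosine-quenched decapeptide. Fluorescence (ex 320, em 430) was read at 0 and 20 min at room temperature. Delta was normalized to 5.8 microM ADEP and DMSO/no-enzyme controls.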
gsp ag: agonists of gsp mutant (McCune-Albright syndrome). gsp mutant cells, cAMP HTRF, 30 min; control for the full effect not named in the record. 0.13% of 340,000 active. AID 624287. Potency, µM (series often up to 76.9 µM), inactives show top-dose activation (cAMP increase), actives largely listed as activators; active = well fitted activation curve with a large enough effect; inconclusive = small, poorly fitted or top-dose-only effect, or another doubt; inactive = no such curve, though single readings can be large or run the other way; cell line not stated here;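 also: phosphodiesterase inhibitor Ro 20-1724 added with compounds to block cAMP breakdown; potency is read from the fitted curve at half-maximal effect; nearly all actives have a fitted effect of over 60% in size; about a fifth of the inactives were tested at one dose only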
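Cells in DMEM/10% FBS with G418 were pretreated with compounds in DMSO plus […] (300 uM stock) for 30 min at 37C. cAMP was measured by HTRF (cAMP-d2 plus anti-cAMP antibody-K) after 30 min at room temperature.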
TRPML1 ag: human mucolipin-1 channel agonism; Q9GZU1; 0.12% of 410,000 active; TRPML1-expressing cells, Ca2+ dye fluorescence, FDSS; host cell line not named in the record; reference of the full effect not given here; AID 624414; activation, % (test concentration not listed); in the data active = activation above about 50%; inconclusive = about 30% to 50%; inactive = below about 30%; also: 0% is about no effect; the text of the record puts the active cut at 80%
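Tetracycline-induced TRPML1-DL cells are seeded and incubated overnight before loading with a no-wash Ca2+ dye and quencher. Agonist activity is taken from the 110 s fluorescence read following compound pin-transfer on an FDSS, before EC80 54-4 challenge.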
* marks the source's active call; other numbers are inactive results; ? = inconclusive; / = no result given; [ ] = remark or other dose.

SMILES	gsp antag	Menin MLL FP FL	TRPML1 blocker	ClpP mod	gsp ag	TRPML1 ag
Cc1ccccc1N1C(=O)[C@@H]2Cc3ccccc3CN2C1=O	1%	-3.1	0	-2.6%	27%	-1.0
C/C(=N\NC(=O)C(C)Nc1cccc(Cl)c1)c1ccc([N+](=O)[O-])cc1 (stereo unspecified)	-5%	0.5	-12	0.7%	16%	-0.2
O=C(Oc1ccc2cc(Br)ccc2c1)c1cccnc1	7%	-0.1	14	0.3%	7%	0.4
CCc1ccc2nc(SCC(=O)NCC3CCCO3)c(C#N)cc2c1 (stereo unspecified)	-12%	-3.3	-15	/	20%[15.4 µM]	0.3
N#Cc1ccc(-c2cccnc2)nc1SCc1ccc(Cl)c(Cl)c1	-5%	4.7	10	3.9%	?	0.8
Cc1cccc(C)c1NC(=O)N1CCC(n2c(=O)[nH]c3ccccc32)CC1	4%	-2.3	27	1.5%	?	-0.2
O=C(NCc1ccc2c(c1)OCO2)c1cccnc1	-1%	2.4	41	0.7%	15%[15.4 µM]	-0.1
NC(=O)c1ccc(NC(=O)c2ccc(COc3ccccc3Br)cc2)cc1	18%	/	0	-14%	1%	-0.3
CCN(CC)CCNC(=S)N1CCn2c(nc3ccccc32)C1	4%	1.9	-20	-0.3%	33%[15.4 µM]	-0.1
COc1ccc(-c2cc(C(=O)N3CCN(C(=O)c4ccco4)CC3)[nH]n2)cc1	7%	/	18	-1.2%	-26%	0.8
COC(=O)COc1cccc(NC(=O)c2cccc(C)c2)c1	-2%	-3.5	1	/	-47%[inhibitor]	-0.7
Cc1cc(F)c(F)cc1C(=O)N1CCCC1	8%	2.8	-15	-1.1%	-10%	2.3
CS(=O)(=O)N(CC(=O)N1CCc2ccccc2C1)c1cccc([N+](=O)[O-])c1	-6%	-5.4	12	?	14%[15.4 µM]	0.2
O=C(c1ccc(OC2CCN(CCc3ccccc3)CC2)cc1)N1CCCC(CCCO)C1 (stereo unspecified)	10%	-0.4	5	-1.0%	?	0.8
Cc1ccc(CNc2ccc(-c3nc(-c4cccnc4)no3)cc2[N+](=O)[O-])cc1	/	/	0	1.0%	/	3.0
Cc1cc(C)c(C)c(S(=O)(=O)N2CCN(Cc3nc4ccccc4[nH]3)CC2)c1C	-22%	1.0	-4	-0.3%	17%	0.7
Cc1cc(C)c(S(=O)(=O)N2CCN(c3ccccc3)CC2)c(C)c1	-3%	1.0	-1	1.2%	-15%	0.6
Cc1cccc(-n2ncc3c(N)ncnc32)c1	8%	3.0	15	?	18%	1.8
O=C(CSc1nc2c([nH]c3ccccc32)c(=O)n1-c1cccc(C(F)(F)F)c1)N1CCCC1	/	/	-1	-4.5%	/	1.3
C=CCNc1nc(C(=O)OCC(=O)N(Cc2ccccc2)C(C)C)cs1	-1%	/	10	-4.3%	-1%	-0.1
Cc1cc(C)c2nc(/N=C(\N)NC(=O)c3ccccc3)nc(C)c2c1	7%	4.1	41	0.3%	-6%[15.4 µM]	0.9
O=C(/C=C/c1ccccc1Cl)NNC(=O)c1ccncc1	9%	/	1	1.5%	5%	2.2
Cc1cc2[nH]c(=O)c(=O)[nH]c2cc1S(=O)(=O)Nc1ccc(OC(F)(F)F)cc1	/	/	-7	-19%	/	3.4
CC1(C)CC(=O)C/C(=N/NC(=O)C2CCN(S(=O)(=O)c3cccs3)CC2)C1	9%	2.0	-5	-2.3%	?	3.3
CCc1nn2c(=O)c(S(=O)(=O)Nc3ccccc3)c(C)nc2s1	-4%	3.5	1	/	0%	0.3

3 structures already listed, sorted by number of heavy atoms, largest number first.
SMILES	gsp antag	Menin MLL FP FL	TRPML1 blocker	ClpP mod	gsp ag	TRPML1 ag
O=C(c1ccc(OC2CCN(CCc3ccccc3)CC2)cc1)N1CCCC(CCCO)C1 (stereo unspecified)	10%	-0.4	5	-1.0%	?	0.8
O=C(/C=C/c1ccccc1Cl)NNC(=O)c1ccncc1	9%	/	1	1.5%	5%	2.2
O=C(NCc1ccc2c(c1)OCO2)c1cccnc1	-1%	2.4	41	0.7%	15%[15.4 µM]	-0.1

The listing continues:
SMILES	gsp antag	Menin MLL FP FL	TRPML1 blocker	ClpP mod	gsp ag	TRPML1 ag
Cc1c(NC(=O)C(C)(C)Oc2ccc(Cl)cc2)cccc1-c1nc2ccccc2o1	/	/	-21	?	/	2.1
COC(CN(C)C(=O)C1CCC(CNS(=O)(=O)c2ccccc2)CC1)OC (stereo unspecified)	2%	1.0	16	-2.4%	23%	-0.5
O=C(Cc1ccc(-c2ccccc2)cc1)NCc1ccccc1	35%	5.6	26	-7.0%	?	-0.5
Cc1ccc(Cl)cc1N1CCN(C(=O)c2nn(C)c3c2CS(=O)(=O)c2ccccc2-3)CC1	/	/	5	-21%	/	-0.4
CC(=O)N[C@H]1[C@H]([C@H](O)[C@H](O)CO)OC(C(=O)O)=C[C@@H]1O	-7%	/	21	1.3%	/	-0.2
CN(C)c1ccc(/C=N/n2c(COc3ccccc3)n[nH]c2=S)cc1	?	2.7	-9	1.9%	8%[15.4 µM]	1.8
O=C(Nc1ccc([N+](=O)[O-])cc1)Nc1ccon1	-3%	/	18	3.2%	?	-0.7
COc1ccccc1C(=O)NCCC(=O)N1CCN(c2ccccc2Cl)CC1	1%	/	21	-2.6%	2%	1.0
CCOc1ccc(N2C(=O)Nc3ccccc3C2(O)C(=O)NCc2ccco2)cc1 (stereo unspecified)	5%	1.1	-4	1.1%	-21%[15.4 µM]	0.1
Cc1nnc2ccc(-c3cccc(NC(=O)Cc4cccs4)c3)nn12	-3%	0.5	18	-5.1%	5%	0.5
C/C(=N\NC(=O)c1cccc(S(=O)(=O)N2CCOCC2)c1)c1ccc(C)cc1	5%	/	1	1.0%	5%	-0.9
O=C1c2ccccc2C(=O)N1CCCP(=O)(O)CCc1ccccc1	8%[15.4 µM]	-0.4	-16	0.6%	?	-0.2
O=C(Nc1ccncc1)C1(c2ccccc2)CCCC1	-7%	2.0	-1	-0.4%	8%	0.2
COc1cc(OC)cc(C(C(=O)NC2CCCCC2)N(C(=O)c2ccno2)c2ccccc2)c1 (stereo unspecified)	2%	-1.3	-2	1.7%	1%	0.4
Cc1ccc(C)c(N2CCN(C(=O)CN(C)S(=O)(=O)c3ccc4c(c3)CCC(=O)N4)CC2)c1	-3%	3.0	2	0.1%	18%	-1.3
Cc1cc(/C=C2/NC(=O)NC2=O)c(C)n1-c1ccc(N2CCOCC2)cc1	-8%	-0.9	21	/	9%[15.4 µM]	-0.2
COc1cc(C=O)ccc1OCCCOc1ccccc1[N+](=O)[O-]	-12%	/	34	-1.3%	-6%	4.0
COCc1ccc(C(=O)N2CCCC(Nc3ccc4c(c3)OCCO4)C2)o1 (stereo unspecified)	-1%	-1.6	2	1.0%	-22%	-0.3
Cc1ccc(NC2CCCN(C(=O)c3ccc4nccnc4c3)C2)cc1C (stereo unspecified)	-13%	/	6	16µM*	7%[15.4 µM]	0.1
CC(CC(=O)O)CC(=O)Nc1ccc(Br)cc1 (stereo unspecified)	0%	0.3	-4	/	0%[15.4 µM]	0.5
CCCCCOc1ccc(C(=O)OCC(=O)Nc2cc(C)c(C)cc2[N+](=O)[O-])cc1	-10%	-4.9	14	/	-1%[15.4 µM]	3.0
C#CCOc1ccccc1C(N)=O	16%	3.8	5	0.1%	-1%[15.4 µM]	-0.1
CN(c1ccccc1C(=O)NC1CCCCC1)S(=O)(=O)c1ccccc1	12%	2.2	-6	3.1%	2%	1.9
CSCCC(NC(=O)c1cc(C)oc1C)C(=O)O (stereo unspecified)	4%	0.1	-4	0.6%	?	0.5
Fc1ccc(NC(=S)Nc2ccccc2OC(F)F)cc1Cl	-2%	3.2	24	-2.1%	9%	2.2

Later entries
SMILES	gsp antag	Menin MLL FP FL	TRPML1 blocker	ClpP mod	gsp ag	TRPML1 ag
COc1ccc(OC)c(NC(=O)CN2C(=O)CC(c3ccco3)Sc3ccccc32)c1 (stereo unspecified)	/	/	23	1.5%	/	5.2
COc1ccc(N2C(=O)CCC(C(=O)NCCN3CCOCC3)C2c2ccc(OC)c(OC)c2)cc1 (stereo unspecified)	10%	5.8	18	-1.2%	-40%[inhibitor]	-0.9
O=C(O)c1ccc(-c2ccc(/C=c3/sc4nc5ccccc5n4c3=O)o2)cc1Cl	-17%	?	15	/	20%	10
COc1cccc(CNc2ncc(Br)cc2Br)c1O	-8%	2.2	39	-1.2%	-38%[inhibitor]	2.8
CCC(C)N1C(=O)CCC1C(=O)NCc1ccc2c(c1)OCO2 (stereo unspecified)	8%	1.8	2	-20%	-15%	0.2
O=C(O)c1cc2ccccc2c(N=Nc2cccnc2)c1O	?	?	6	/	4%[15.4 µM]	-0.3
O=S1(=O)CCOC[C@H](Cc2ccccc2)N1Cc1ccccc1F	2%	/	7	3.8%	23%	-0.1
Cc1ccc(C(=O)N2CCN(Cc3ccc4c(c3)OCO4)CC2)cc1C	-5%	0.4	-10	0.0%	-9%	0.4
CCN(CC(=O)Nc1cc(Cl)ccc1C)C(=O)c1cc([N+](=O)[O-])ccc1N1CCOCC1	-8%	/	-19	1.8%	23%	-0.5
Cc1ccc(C)c(S(=O)(=O)N2CCN(C(=O)c3cncc(Br)c3)CC2)c1	0%	1.8	-13	0.5%	-8%[15.4 µM]	-1.5
Cc1ccc(CNC(=O)c2ccc(CSCc3ccc(C)cc3)o2)cc1	/	/	4	-0.7%	/	1.1
COc1ccc(C2CCCN2C(=S)Nc2ccc(C)cc2Cl)cc1OC (stereo unspecified)	-20%	0.7	-4	/	22%	1.0
S=C(NCCCN1CCOCC1)N1CCOCC1	5%	3.2	-11	/	-22%[15.4 µM]	0.5
O=[N+]([O-])c1ccc(Oc2ccc(C(F)(F)F)cn2)cc1	5%	0.9	-4	/	7%[15.4 µM]	-0.5
O=[N+]([O-])c1ccc(N2CCCC2)cc1NC1CC1	?	5.1	6	-2.4%	-16%	1.3
O=C1c2ccccc2C(=O)N1Nc1ccc([N+](=O)[O-])cc1[N+](=O)[O-]	13%	-0.9	-7	1.1%	-17%[15.4 µM]	-1.2
Cc1csc(N2CCN(c3cc4c(cc3Cl)nc(-c3ccncc3)n4CCCN3CCCC3)CC2)n1	-10%	11	20	-8.9%	17%	-0.5
c1ccc(-c2cn3nc(-c4ccccc4)sc3n2)cc1	3%	/	-1	/	6%[15.4 µM]	0.8
Cc1cc2cc(CNC(=S)NCc3ccccc3)ccc2n1C	-7%	-1.3	26	/	?	2.1
Cc1cccc(/C=N/c2sc3c(c2C#N)CCN(Cc2ccccc2)C3)c1O	12%	?	3	53%	-7%[15.4 µM]	-0.5
COc1cccc(CNC(=O)CN2C(=O)CCn3nc(-c4cn(C)c5ccccc45)cc32)c1OC	/	/	-3	1.0%	/	1.0
